NS1 inh – blocks influenza NS1 protein function. S. cerevisiae slowed by influenza A NS1, growth recovery by OD600. Potency, µM (highest dose often 46.1 µM), without a hit: at the top dose activity, positive = more growth. 0.4% of 270,000 active; active means well fitted rising curve with a large enough effect; inconclusive means small, poorly fitted or top-dose-only effect; inactive means no such curve, though single readings can be large or run the other way; further: nearly all actives have a fitted effect of over 50% in size
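Growth recovery, yeast-based: influenza A NS1 expressed in S. cerevisiae causes slow growth, and suppressors are detected by OD600. The parent strain without NS1 is used as positive control.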
Marburg entry inh – blocks Marburg virus binding to or entry into cells. Marburg virus pseudotyped entry inhibition, cell reporter; control for the full effect not named in the record; about a third of the inactives were read at about 46 µM. 1.8% of 300,000 active. Potency, µM (top dose mostly 37.8 µM), without a hit: at the top dose activity change, negative = inhibition, hits mostly inhibitors. AID 540276; active = well fitted inhibition curve with a large enough effect; inconclusive = small, poorly fitted or top-dose-only effect, or effect the other way; inactive = flat fitted curve, though single readings scatter; tested in HEK293 cells; about a fifth of its hits are not listed in these tables; further: on the % scale 0 is the no-effect control and ±100 the full control effect; luciferase read-out
RE007 growth inh – less growth of the S. pombe RE007 Vpr strain | S. pombe RE007 Vpr strain, BacTiter-Glo ATP luminescence, 24 h; control for the full effect not named in the record | 0.21% of 360,000 active | AID 651644 | Potency, µM (doses to about 92.2 µM), inactives show at the top dose activity change, negative = less growth; active = well fitted falling curve with a large enough effect; inconclusive = small, poorly fitted or top-dose-only effect; inactive = no such curve, though single readings can be large or run the other way;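 further: on the % scale 0 is the no-effect control and ±100 the full control effect; nearly all actives have a fitted effect of over 50% in size; the assay follows cell death caused by Vpr and the record does not say whether a fall means rescue or toxicity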
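Fission yeast RE007 carrying one integrated HIV-1 vpr copy, seeded at OD 0.01 in PMG+AL medium with 23 nL pinned compound. Grown 24 h at 30 degrees; viability read by BacTiter-Glo luminescence after 5 min.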
2A StopGo – FMDV 2A StopGo reporter, luciferase signal; human cells with a luciferase reporter of 2A StopGo recoding; control for the full effect not named in the record; Potency, µM (doses to about 57.9 µM), for the others: at the top dose signal change, negative = less light; 1.2% of 410,000 active; active = well fitted falling curve with a large enough effect; inconclusive = small, poorly fitted or top-dose-only effect; inactive = no such curve, though single readings can be large or run the other way; tested in HEK293T cells; further: on the % scale 0 is the no-effect control and ±100 the full control effect; nearly all actives have a fitted effect of over 45% in size; luciferase light after 4 h
Cruzain inh noDet – blocks cruzain activity in detergent-free assay; 2.3% of 200,000 active; Potency, µM, for the others: max response, negative = inhibition, usual class: inhibitors; P25779; purified cruzain, Z-FR-AMC fluorescence, no detergent; AID 1476;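 further: plate controls were enzyme without inhibitor for no effect and buffer without enzyme for full effect; nearly all actives have a fitted effect of over 40% in size; top concentration of the series not given in the record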
Target sequence (P25779 123-467 limits assumed): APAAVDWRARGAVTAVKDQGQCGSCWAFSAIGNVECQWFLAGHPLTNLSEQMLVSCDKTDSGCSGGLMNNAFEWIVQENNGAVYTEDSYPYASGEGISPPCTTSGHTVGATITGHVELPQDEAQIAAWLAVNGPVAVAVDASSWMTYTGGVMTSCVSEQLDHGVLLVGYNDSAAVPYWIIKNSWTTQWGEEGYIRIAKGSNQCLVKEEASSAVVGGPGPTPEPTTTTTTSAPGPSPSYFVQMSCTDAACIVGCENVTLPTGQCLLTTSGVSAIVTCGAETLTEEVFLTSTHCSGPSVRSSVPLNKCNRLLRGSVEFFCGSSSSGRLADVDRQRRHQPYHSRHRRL
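Detergent-free condition (0.00005% Triton X-100) in acetate buffer pH 5.5 with DTT. 1.5 nM enzyme and compound were pre-mixed 15 min, then 2 uM Z-FR-AMC substrate added; reaction progress from fluorescence change between first and third reads (60 s).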
Cruzain inh Det – blocks cruzain activity in presence of Triton detergent; P25779; purified cruzain, Z-FR-AMC fluorescence, 0.01% Triton; Potency, µM, inactives show max response, negative = inhibition, most hits filed as inhibitors; 0.43% of 200,000 active; AID 1478;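 further: plate controls were neutral wells for no effect and buffer without enzyme for full effect; nearly all actives have a fitted effect of over 40% in size; top concentration of the series not given in the record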
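Purified cruzain (1.5 nM final) was preincubated with compounds for 15 min at room temperature in 100 mM sodium acetate pH 5.5, 5 mM DTT, 0.01% Triton X-100. Reaction started with 2 uM Z-FR-AMC; AMC fluorescence change over 60 s gave activity.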
Lassa entry inh – inhibitors of Lassa virus binding or cell entry. AID 540256. Potency, µM (doses to about 37.9 µM), without a hit: at the highest dose activity change, negative = inhibition, most hits filed as inhibitors. 1.2% of 300,000 active. Lassa virus pseudotype entry inhibition, cell reporter; control for the full effect not named in the record; active means well fitted inhibition curve with a large enough effect; inconclusive means small, poorly fitted or top-dose-only effect, or effect the other way; inactive means flat fitted curve, though single readings scatter; tested in HEK293 cells; further: on the % scale 0 is the no-effect control and ±100 the full control effect; nearly all actives have a fitted effect of over 50% in size; luciferase read-out
SARS PLP yeast – inhibitors of SARS-CoV papain-like protease in yeast | S. cerevisiae expressing SARS-CoV PLpro, growth rescue; control for the full effect not named in the record | Potency, µM (series often up to 32.9 µM), for the others: at the top dose activity, positive = growth rescue | 0.19% of 330,000 active; active means well fitted rising curve with a large enough effect; inconclusive means small, poorly fitted or top-dose-only effect; inactive means no such curve, though single readings can be large or run the other way; further: 0% is about no effect; nearly all actives have a fitted effect of over 55% in size; growth read by luminescence after 48 h
An asterisk follows results filed as active; & = joins results of further samples; [ ] = another dose, or the depositor's remark. Unless noted, the call rests on the fitted dose curve; in most records, active means well fitted curve in the direction sought with a large enough effect; inconclusive means small, poorly fitted or top-dose-only effect, or another doubt; inactive means no such curve, though single readings can be large; an effect the other way counts as inactive or inconclusive. Potency means the concentration at half of the fitted maximal effect.

`Cc1ccc(NC(=O)C2CCCN(S(=O)(=O)c3c(C)noc3C)C2)c(C)c1` (stereo unspecified) gave NS1 inh 0%, Marburg entry inh 5%, RE007 growth inh -1%, 2A StopGo -19%, Cruzain inh noDet 8%, Cruzain inh Det 1.3%, Lassa entry inh -22% and SARS PLP yeast -6%.
`COc1ccc(C2CC(=O)c3cnc(Nc4cc(C)cc(C)c4)nc3C2)cc1` (stereo unspecified) gave NS1 inh 1%, Marburg entry inh -11%, RE007 growth inh -8%, 2A StopGo 0%, Cruzain inh noDet -10%, Cruzain inh Det -13%, Lassa entry inh 0.46µM* and SARS PLP yeast -1%.
Screening O=C1c2ccccc2C(=O)N1c1ncc(Cc2ccc(Cl)cc2)s1 returned NS1 inh 11%, Marburg entry inh inconclusive, RE007 growth inh -9%, 2A StopGo -26%, Cruzain inh noDet -6%, Cruzain inh Det -6.4%, Lassa entry inh 0% and SARS PLP yeast 12%.
For Cc1ccc(N2CC(C(=O)OCC(=O)Nc3cc(C)on3)CC2=O)c(C)c1 (stereo unspecified) the results were NS1 inh -2%, Marburg entry inh -26%[46.1 µM], RE007 growth inh 11%, 2A StopGo 0%, Lassa entry inh 3%[46.1 µM] and SARS PLP yeast 2%.
Screening COc1cccc(NS(=O)(=O)c2ccc3c(c2)N(C)C(=O)CC(=O)N3C)c1 returned Marburg entry inh -1%[46.1 µM], 2A StopGo 22%, Cruzain inh noDet inconclusive, Cruzain inh Det -7.6% and Lassa entry inh -19%[46.1 µM].
Screening COC(=O)C1=CN(c2cccc(C(F)(F)F)c2)C=C(C(=O)OC)C1c1ccc(O)c(OC)c1 returned NS1 inh 10%, RE007 growth inh -6%, 2A StopGo -29% and SARS PLP yeast -3%.
COCCNC(=O)C1CCC(CNS(=O)(=O)c2cccc3nsnc23)CC1 (stereo unspecified) was read as NS1 inh 10%, RE007 growth inh 18%, 2A StopGo -1% and SARS PLP yeast inconclusive.
`CCc1ccc(NC(=O)CN2CCCN(S(=O)(=O)c3ccc(F)cc3)CC2)cc1` gave NS1 inh -30%, Marburg entry inh 3%[46.1 µM], RE007 growth inh 4%, 2A StopGo inconclusive, Lassa entry inh -15% and SARS PLP yeast -11%.
For CCC(Oc1ccccc1)C(=O)NCc1ccc(S(N)(=O)=O)cc1 (stereo unspecified) the results were NS1 inh -16%, Marburg entry inh 1%, RE007 growth inh 0%, 2A StopGo -8%, Cruzain inh noDet -6%, Cruzain inh Det -1.0%, Lassa entry inh 7% and SARS PLP yeast 7%.
`Cc1ccc(C)c(S(=O)(=O)N2CCN(C(=O)Cn3c(=O)cnc4ccccc43)CC2)c1` gave Marburg entry inh -6%, RE007 growth inh 28%, 2A StopGo -17%, Lassa entry inh -25% and SARS PLP yeast 2%.
For O=C(CSc1nnc2ccc(-c3ccco3)nn12)Nc1ccccc1F the results were Marburg entry inh -2%, RE007 growth inh -8%, 2A StopGo -5% and Lassa entry inh -1%.
Screening Cc1cc(NC(=O)CCS(=O)(=O)c2ccc3c(c2)NC(=O)C(C)S3)ccc1Br (stereo unspecified) returned NS1 inh -1%, RE007 growth inh -11%, 2A StopGo inconclusive and SARS PLP yeast 9%.
Screening COc1cc2c(cc1OC)CN(Cc1cc(=O)oc3cc(C)c(C)cc13)CC2 returned NS1 inh 7%, Marburg entry inh -3%, RE007 growth inh -6%, 2A StopGo -15%, Cruzain inh noDet -1%, Cruzain inh Det -1.7%, Lassa entry inh -3% and SARS PLP yeast -5%.
For CC1CCN(C(=O)CSc2nc(-c3ccc(C(C)C)cc3)no2)CC1 the results were 2A StopGo 19%, Cruzain inh noDet 15%, Cruzain inh Det -3.8% and Lassa entry inh 17%[46.1 µM].
For COc1ccc([N+](=O)[O-])cc1NS(=O)(=O)c1ccccc1 the results were NS1 inh -10%, Marburg entry inh inconclusive, RE007 growth inh -7%, 2A StopGo 20%, Cruzain inh noDet 0%, Cruzain inh Det -7.0%, Lassa entry inh 10% and SARS PLP yeast -20%.
`O=C(COc1ncnc2ccccc12)N1CCOCC1` gave NS1 inh 0%, Marburg entry inh 2%, RE007 growth inh -8%, 2A StopGo -15%, Cruzain inh noDet -8%, Cruzain inh Det 5.4%, Lassa entry inh 6% and SARS PLP yeast -6%.
`CCc1c(C)[nH]c2c1C(=O)C(CN1CCOCC1)CC2` (stereo unspecified) gave NS1 inh 6%, Marburg entry inh inconclusive, RE007 growth inh -6%[18.4 µM], 2A StopGo -1%, Cruzain inh noDet 3%, Cruzain inh Det 1.5% and Lassa entry inh 13%.
Screening Cc1ccc(C(=O)Nc2nnc(S(=O)(=O)N3CCOCC3)s2)cc1 returned NS1 inh -8%, RE007 growth inh 6%, 2A StopGo -9%&7%, Cruzain inh noDet 0%, Cruzain inh Det -1.1%, Lassa entry inh 0%[46.1 µM] and SARS PLP yeast 1%.
For COc1ccc(Cc2nc3ccc(C(=O)NCc4cc(C)no4)cc3o2)cc1OC the results were NS1 inh -2%, Marburg entry inh -18%, RE007 growth inh 2%, 2A StopGo inconclusive, Lassa entry inh 2% and SARS PLP yeast 10%.
CCc1ccc(S(=O)(=O)Nc2ccc(-c3ccc(N4CCCCCC4)nn3)cc2)cc1 was read as 2A StopGo 21%, Cruzain inh noDet 24%, Cruzain inh Det -0.9% and Lassa entry inh 11%[46.1 µM].
Cc1nc2nc(C)c(CCC(=O)NCc3ccc4c(c3)OCO4)c(C)n2n1 was read as NS1 inh 1%, Marburg entry inh 1%, RE007 growth inh 3%, 2A StopGo -13%, Cruzain inh noDet -1%, Cruzain inh Det -0.1%, Lassa entry inh -8% and SARS PLP yeast 2%.
`O=C(NCCc1ccc(F)cc1)C(=O)Nc1cc2c3c(c1)CC(=O)N3CCC2` gave Marburg entry inh 0%, RE007 growth inh 6%, 2A StopGo -26%, Lassa entry inh inconclusive and SARS PLP yeast -1%.
For FC(F)(F)c1cccc(-c2cc3ccccc3nc2N2CCCC2)c1 the results were NS1 inh -2%, Marburg entry inh inconclusive, RE007 growth inh -15%, 2A StopGo 0%, Cruzain inh noDet 4%, Cruzain inh Det -3.5%, Lassa entry inh 4% and SARS PLP yeast 2%.
Screening O=c1[nH]cnc(CN2CCCCC2)c1O returned Marburg entry inh -6%, RE007 growth inh inconclusive, 2A StopGo -12% and Lassa entry inh 6%.
`Cc1ccc(-n2nc3c(N4CCC(C(=O)NC(C)c5ccccc5)CC4)nnc(C)c3c2C)cc1` (stereo unspecified) gave 2A StopGo inconclusive, Cruzain inh noDet 7%, Cruzain inh Det -3.5% and Lassa entry inh -20%[46.1 µM].
Screening COc1ccccc1CNS(=O)(=O)c1ccc2c(c1)CC(C)N2C(=O)C1CC1 (stereo unspecified) returned NS1 inh 6%, RE007 growth inh 18%, 2A StopGo -9% and SARS PLP yeast 4%.
Screening COc1cc(S(=O)(=O)N2CCN(C(=O)c3ccccc3)CC2)c(OC)cc1Br returned NS1 inh -1%, Marburg entry inh 12%, RE007 growth inh -5%, 2A StopGo 2%, Lassa entry inh -16% and SARS PLP yeast -1%.
Screening CCOC(=O)N1CCN(CC(O)COc2ccc(-c3ccccc3)cc2)CC1 (stereo unspecified) returned NS1 inh -29%, RE007 growth inh -8%, 2A StopGo inconclusive and SARS PLP yeast -15%.
Screening COCCCn1cc(C(=O)c2cc(OC)ccc2OCC(=O)Nc2cc(C)on2)cc(C#N)c1=O returned NS1 inh -23%, Marburg entry inh 6%, RE007 growth inh 4%, 2A StopGo 22%, Cruzain inh noDet 9%, Cruzain inh Det -0.1%, Lassa entry inh 23% and SARS PLP yeast -6%.
For COc1ccccc1CNC(=O)C12CC3CC(CC(C3)C1)C2 the results were NS1 inh 14%, Marburg entry inh inconclusive, RE007 growth inh 34%, 2A StopGo -4% and Lassa entry inh -4%.
For Nc1c(C(=O)NCc2ccco2)c2nc3ccccc3nc2n1CCc1ccc(F)cc1 the results were NS1 inh inconclusive, Marburg entry inh inconclusive, RE007 growth inh -10%, 2A StopGo inconclusive, Cruzain inh noDet 3%, Cruzain inh Det -18%, Lassa entry inh -15% and SARS PLP yeast 12%.
`COCC(=O)Nc1nc(-c2ccc([N+](=O)[O-])cc2)cs1` gave NS1 inh 7%, RE007 growth inh -14%, 2A StopGo 11% and SARS PLP yeast 0%.
`NS(=O)(=O)c1ccc(NC(=O)CN2CCc3ccccc3C2)cc1` gave NS1 inh -13%, Marburg entry inh -1%[46.1 µM], RE007 growth inh 1%, 2A StopGo -7%, Lassa entry inh 17% and SARS PLP yeast -5%.
`COc1ccc(/C=N/NC(=O)c2cccc(Br)c2)cc1CN1CCOCC1` gave NS1 inh -1%, Marburg entry inh -4%, RE007 growth inh 4%, 2A StopGo 26%, Lassa entry inh 10% and SARS PLP yeast 0%.
Cc1ccc(OC(=O)Cn2c(C(F)(F)F)nc3ccccc32)cc1 was read as NS1 inh -15%, Marburg entry inh -1%[46.1 µM], RE007 growth inh 16%, 2A StopGo inconclusive, Cruzain inh noDet -15%, Cruzain inh Det -0.9%, Lassa entry inh -1% and SARS PLP yeast -1%.
For O=C1NNC(c2ccccc2)=N/C1=C\c1ccccc1Cl the results were NS1 inh -7%, Marburg entry inh 0%, RE007 growth inh 3%, 2A StopGo -16%, Lassa entry inh -3% and SARS PLP yeast -3%.
CCOC(=O)C1CCN(c2c([N+](=O)[O-])c(C(Cl)Cl)nn2-c2ccccc2)CC1 was read as NS1 inh -3%, Marburg entry inh -13%, RE007 growth inh 62%, Cruzain inh noDet 14%, Cruzain inh Det 1.3%, Lassa entry inh 9.2µM* and SARS PLP yeast -17%.
`Cc1cccc(-n2ncc3c(Nc4ccc(Oc5ccc(Cl)cc5)cc4)ncnc32)c1` gave 2A StopGo -13%, Cruzain inh noDet 25µM*, Cruzain inh Det 3.0% and Lassa entry inh -4%[46.1 µM].
CCOc1ccccc1NC(=S)N1CCC(NC(=O)C(C)(C)C)CC1 was read as NS1 inh -2%, Marburg entry inh inconclusive, RE007 growth inh 15%, 2A StopGo -15%, Lassa entry inh 23%[46.1 µM] and SARS PLP yeast 1%.

Screening data from PubChem.
